DUX4 txn inh = blocks DUX4-driven transcriptional activation; activity change, negative = inhibition, % (concentration not given with the values); actives 0.8% (n = 37,000); 293T-iDUX4 ZSCAN4-Gaussia luciferase reporter, 24 h; active compounds read low;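 active = -10% or lower and over 25 points stronger than a control reporter; inconclusive = -10% or lower with a smaller gap; inactive = above -10%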;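 note: 0% = median of neutral control wells and -100% = median of positive control wells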
DUX4 txn inh difference = also measured in DUX4 txn inh; calls as there; Gaussia minus Italica difference, %; measured here: selective DUX4 reporter inhibition;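 worked out from the two reporters; negative = selective loss of the DUX4 reporter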
DUX4 txn inh control = recorded beside DUX4 txn inh, whose call it bears; activity change, negative = inhibition, %; measured here: Italica tet-on control reporter;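 0 = neutral control and -100 = positive control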
An asterisk follows results filed as active; ? = inconclusive; . = not tested or not shown; ! = not active in a repeat.

SMILES	DUX4 txn inh	DUX4 txn inh difference	DUX4 txn inh control
CCNC(=O)Nc1ccc2c(c1)C(=O)N(C)[C@H]1CC[C@@H](CC(=O)NCC3CC3)O[C@H]1CO2	-3	-5	2.8
O=C(NCc1ccncn1)[C@H]1[C@H](CO)[C@H]2Cn3c(cccc3=O)[C@@H]1N2CC1CC1	12	18	-5.6
CCS(=O)(=O)N1CC(=O)N2[C@H](CO)[C@H](c3ccc(C4=CCCCC4)cc3)[C@@H]2C1	2	-3	5.9
COc1ccc2c3c([nH]c2c1)[C@H](CO)N(C(=O)CN(C)C)CC31CN(CC2CC2)C1	7	-14	20
COc1cccc(S(=O)(=O)Nc2ccc3c(c2)[C@@H]2C[C@@H](CC(=O)N[C@@H](C)c4ccccc4)O[C@@H](CO)[C@@H]2O3)c1	-3	4	-6.7
COc1ccccc1NC(=O)N1C[C@@H]2[C@H](c3ccccc31)[C@H](CO)N2Cc1ccccc1F	-3	-2	-0.9
CN1C(=O)c2cc(NS(=O)(=O)c3cccc(F)c3)ccc2OC[C@H]2O[C@@H](CC(=O)N3CCc4ccccc4C3)CC[C@@H]21	-2	0	-1.9
COc1ccc2c3c([nH]c2c1)[C@H](CO)N(Cc1nccs1)CC31CN(Cc2nccs2)C1	2	-4	6.9
O=C(C[C@H]1CC[C@@H]2[C@H](COC[C@@H](O)CN2Cc2ccc(Cl)cc2)O1)Nc1nccs1	?	.	.
COc1ccccc1-c1ccc([C@@H]2[C@H](CO)N(CC3CC3)C23CN(S(C)(=O)=O)C3)cc1	?	.	.
CCCN(C)C[C@H]1OCCCC[C@H](C)Oc2ccc(NS(=O)(=O)c3ccc(C)cc3)cc2C(=O)N([C@@H](C)CO)C[C@@H]1C	1	-3	4.0
COCC(=O)Nc1ccc2c(c1)OC[C@@H](C)N(C(=O)Nc1ccccc1F)C[C@@H](C)[C@H](OC)CN(C)C2=O	6	10	-4.0
C[C@@H]1CCCCO[C@@H](CN(C)Cc2ccc(Cl)c(Cl)c2)[C@@H](C)CN([C@H](C)CO)C(=O)c2cc(NC(=O)c3ccncc3)ccc2O1	8	1	7.0
COc1ccc(C(=O)Nc2ccc3c(c2)C(=O)N(C)[C@H]2CC[C@H](CC(=O)NCC4CC4)O[C@H]2CO3)cc1	-6	-7	1.1
COc1ccc2c3c(n(C)c2c1)[C@H](CO)N(C(C)=O)CC31CCN(C(=O)Nc2ccc(F)cc2)CC1	-9	-5	-4.2
C[C@@H]1CCCCO[C@@H](CN(C)C(=O)Nc2cccc3ccccc23)[C@H](C)CN([C@H](C)CO)C(=O)c2cc(NS(=O)(=O)c3cn(C)cn3)ccc2O1	1	-4	4.5
C[C@H]1CN([C@@H](C)CO)C(=O)Cc2cc(NS(=O)(=O)c3cn(C)cn3)ccc2O[C@@H]1CN(C)Cc1ccc2c(c1)OCO2	-1	0	-1.1
C[C@H](NC(=O)C[C@H]1C=C[C@H](NC(=O)c2cccnc2)[C@@H](CO)O1)c1ccccc1	-4	-5	0.8
CNC(=O)C[C@H]1CC[C@@H]2[C@H](COC[C@@H](O)CN2C(=O)Nc2ccc3c(c2)OCO3)O1	-2	-5	3.1
N#Cc1ccc(-c2ccc(C3[C@@H]4CN(Cc5ccccc5F)C[C@H]3N4)cc2)cc1 (stereo partly specified)	-44*!	-38*	-5.3*
C[C@@H]1CN([C@H](C)CO)C(=O)CCCn2cc(nn2)CO[C@@H]1CN(C)C(=O)NC1CCCCC1	3	4	-1.5
O=C(NC1CCCC1)[C@H]1[C@H](CO)[C@H]2Cn3c(cccc3=O)[C@@H]1N2CC1CCCC1	7	2	4.5
C[C@@H]1CN([C@@H](C)CO)C(=O)c2cc(NC(=O)Cc3ccccc3)ccc2O[C@@H](C)CCCCO[C@H]1CN(C)Cc1ccncc1	-3	0	-3.6
C[C@@H](O)C#Cc1ccc([C@@H]2[C@H]3CN(C(=O)c4cccc(F)c4)CCCCN3[C@H]2CO)cc1	10	4	6.1
COCC(=O)Nc1ccc2c(c1)C(=O)N(C)[C@H]1CC[C@H](CC(=O)NCc3ccccc3Cl)O[C@H]1CO2	1	2	-1.2
CCC(=O)NC[C@@H]1[C@H](c2ccc(C3=CCCC3)cc2)[C@@H](CO)N1C(=O)C1CC1	-1	-1	-0.4
C[C@H](NC(=O)C[C@@H]1CC[C@@H]2[C@H](COC[C@@H](O)CN2C(=O)Nc2cccc(F)c2)O1)c1ccccc1	4	5	-1.7
O=C(Cc1ccccc1)N1CC[C@@H]2[C@@H](CO)Nc3ccc(-c4ccccc4)cc3[C@@H]21	-5	13	-17
COc1ccc2c3c(n(C)c2c1)[C@@H](CO)N(C(=O)C1CC1)CC31CN(Cc2ccccc2OC)C1	?	.	.
COCC(=O)N1[C@@H]2c3ccc(C4=CCCCC4)c(=O)n3C[C@@H]2[C@@H](CO)[C@@H]1C(=O)N1CCCCC1	-2	-1	-0.7
Cc1cccc(S(=O)(=O)N(C)C[C@@H]2OCc3cnnn3CCCC(=O)N([C@@H](C)CO)C[C@@H]2C)c1	6	14	-8.0
COc1ccc(CNC(=O)c2cc3c(c(-c4cccc(-c5ccc(C#N)cc5)c4)n2)[C@@H](CCO)N([S@](=O)C(C)(C)C)C3)cc1	-1	1	-1.6
C[C@@H]1C(=O)N[C@@H](c2ccc3c(c2)OCO3)CC=CC[C@H](C)Oc2ccccc2C(=O)N1C (mixture of isomers)	-5	-1	-3.2
C[C@H]1CN([C@@H](C)CO)C(=O)c2cc(-c3ccc(C(=O)N(C)C)cc3)cnc2O[C@@H]1CN(C)C(=O)c1cccnc1	4	1	2.7
C[C@@H]1CN([C@H](C)CO)C(=O)c2c(c3ccccc3n2C)-c2ccccc2CO[C@@H]1CN(C)Cc1cccc(F)c1	?	.	.
CCS(=O)(=O)Nc1ccc2c(c1)C(=O)N(C)[C@@H]1CC[C@@H](CC(=O)N3CCN(C)CC3)O[C@H]1CO2	-3	-1	-1.6
C[C@H]1CCCCO[C@@H](CN(C)Cc2ccc3c(c2)OCO3)[C@@H](C)CN([C@@H](C)CO)C(=O)c2cc(N(C)C)ccc2O1	0	1	-1.5
COc1ccc2c3c([nH]c2c1)[C@@H](CO)N(C(=O)c1ccccc1)CC31CCN(C)CC1	11	-2	13
COCC(=O)N1CC(=O)N2[C@H](CO)[C@H](c3ccc(Br)cc3)[C@@H]2C1	6	-4	10.0
COc1ccc(S(=O)(=O)Nc2ccc3c(c2)C(=O)N([C@H](C)CO)C[C@@H](C)[C@H](CN(C)S(=O)(=O)c2ccc(Cl)cc2)OCCCC[C@H](C)O3)cc1	-3	-1	-2.2
N#C[C@@H]1N[C@H](CO)[C@H]1c1ccccc1	-5	-5	-0.2
CC(C)NC(=O)Nc1ccc2c(c1)CC(=O)N([C@H](C)CO)C[C@H](C)[C@@H](CN(C)Cc1ccncc1)O2	-2	1	-2.2
CO[C@@H]1CC[C@H]2CCOc3c(C#N)cccc3C(=O)N(C)C[C@@H](C)C(=O)N(C)C[C@H]1O2	-2	-8	5.1
COc1ccc2c3c(n(C)c2c1)[C@H](CO)N(C(=O)Nc1ccc(F)cc1)CC31CCN(C(=O)Nc2ccc(F)cc2F)CC1	?	.	.
COc1cccc(-c2ccc([C@H]3[C@@H](CO)N(C(=O)Cc4ccncc4)[C@H]3C#N)cc2)c1	-2	-1	-0.3
CCCC#Cc1ccc([C@@H]2[C@H]3CN(S(=O)(=O)c4ccccc4F)CCCCN3[C@H]2CO)cc1	0	-7	6.3
O=C(C1CCC1)N1CC[C@@H]2[C@@H](CO)Nc3ccc(C#Cc4ccc(F)cc4)cc3[C@@H]21	5	-6	11
COc1cccc(-c2ccc([C@H]3[C@@H](CO)N4CCCCN(S(=O)(=O)c5cccs5)C[C@@H]34)cc2)c1	?	.	.
CN1C(=O)c2cc(NC(=O)c3cccc(F)c3)ccc2OC[C@H]2O[C@H](CC(=O)N3CCc4ccccc4C3)CC[C@@H]21	1	4	-2.7
Cc1noc(C)c1S(=O)(=O)Nc1ccc2c(c1)C(=O)N([C@H](C)CO)C[C@H](C)[C@@H](CN(C)C(=O)Nc1cccc3ccccc13)OCCCC[C@@H](C)O2	0	-1	0.5

Continued.
SMILES	DUX4 txn inh	DUX4 txn inh difference	DUX4 txn inh control
COc1ccc2c3c([nH]c2c1)[C@@H](CO)N(C(=O)NC1CCCC1)CC31CN(S(C)(=O)=O)C1	18	18	0.7
O=C(CC(F)(F)F)N1C[C@@H]2[C@H](c3ccccc31)[C@@H](CO)N2C(=O)C1CCCCC1	-3	2	-5.7
O=C(NC[C@@H]1N[C@@H](CO)[C@@H]1c1ccc(C2=CCCC2)cc1)c1ccccc1	-1	-3	1.8
C[C@H](CO)N1C[C@H](C)[C@H](CN(C)S(C)(=O)=O)Oc2c(NC(=O)C3CCCCC3)cccc2C1=O	-2	-2	-0.6
C[C@H](CO)N1C[C@H](C)[C@H](CN(C)C(=O)Cc2ccccc2)OCc2cnnn2CCCC1=O	6	2	3.5
C[C@@H]1CN([C@H](C)CO)C(=O)c2ccccc2-c2ccccc2CO[C@@H]1CN(C)S(=O)(=O)c1ccc(Cl)cc1	?	.	.
CCCNC(=O)C[C@@H]1CC[C@@H]2[C@@H](COc3ccc(NC(=O)c4cccc(C(F)(F)F)c4)cc3C(=O)N2C)O1	2	0	1.7
CCCNC(=O)[C@@H]1[C@@H](CO)[C@@H]2Cn3c(ccc(-c4ccccc4F)c3=O)[C@@H]2N1C(=O)C1CCC1	7	7	0.1
CO[C@@H]1CN(C)C(=O)c2cc(NC(C)=O)ccc2OC[C@@H](C)N(C(=O)C2CC2)C[C@@H]1C	-4	-7	2.7
COc1ccccc1-c1ccc2c(c1)O[C@H](CN(C)C(=O)Nc1cccc(F)c1)[C@@H](C)CN([C@H](C)CO)S2(=O)=O	1	-1	2.1

Sorted by the number under DUX4 txn inh difference (smallest number first): 3 from the list above.
SMILES	DUX4 txn inh	DUX4 txn inh difference	DUX4 txn inh control
O=C(NC[C@@H]1N[C@@H](CO)[C@@H]1c1ccc(C2=CCCC2)cc1)c1ccccc1	-1	-3	1.8
COc1ccccc1-c1ccc2c(c1)O[C@H](CN(C)C(=O)Nc1cccc(F)c1)[C@@H](C)CN([C@H](C)CO)S2(=O)=O	1	-1	2.1
C[C@H](CO)N1C[C@H](C)[C@H](CN(C)C(=O)Cc2ccccc2)OCc2cnnn2CCCC1=O	6	2	3.5

Going on with the list.
SMILES	DUX4 txn inh	DUX4 txn inh difference	DUX4 txn inh control
CN(C)C(=O)c1cccc(-c2ccc3c(c2)[C@H]2[C@H](CCN2C(=O)c2cccnc2)[C@@H](CO)N3)c1	0	-14	14
COCC(=O)N1[C@@H]2c3cccc(=O)n3C[C@@H]2[C@@H](CO)[C@@H]1C(=O)NCc1ccccc1F	2	4	-2.0
CC(=O)N1CC2(C1)[C@@H](c1ccc(-c3ccc(C#N)cc3)cc1)[C@@H](CO)N2C(=O)C1CC1	11	5	6.5
Cc1noc(C)c1S(=O)(=O)N(C)C[C@H]1OCc2ccccc2-c2ccccc2C(=O)N([C@@H](C)CO)C[C@H]1C	4	5	-1.0
COc1ccc(NC(=O)N2CCC3(CC2)CN(CC2CC2)[C@@H](CO)c2c3c3ccc(OC)cc3n2C)cc1	?	.	.
Cc1noc(C)c1S(=O)(=O)N(C)C[C@@H]1Oc2ccc(NC(=O)Nc3ccc4c(c3)OCO4)cc2C(=O)N([C@@H](C)CO)C[C@@H]1C	-2	1	-2.3
O=S(=O)(N[C@@H]1CC[C@@H](CCn2cc(Cc3ccccc3)nn2)O[C@@H]1CO)c1ccccc1F	2	2	0.7
CC=Cc1ccc2n(c1=O)C[C@@H]1[C@@H](CO)[C@H](C(=O)N3CCOCC3)N(Cc3ccccc3OC)[C@H]21 (mixture of isomers)	13	3	10
N#Cc1cccc(-c2ccc([C@H]3[C@H]4CN(C(=O)Nc5cccc(F)c5)CCCCN4[C@H]3CO)cc2)c1	20	52	-31
C[C@@H]1CN([C@H](C)CO)C(=O)CCCn2nncc2CO[C@@H]1CN(C)S(=O)(=O)c1ccc(-n2cccn2)cc1	-2	-4	1.4
C[C@H](CO)N1C[C@H](C)[C@H](CN(C)S(C)(=O)=O)OCCCC[C@H](C)Oc2ccc(NC(=O)NC3CCCCC3)cc2C1=O	1	-3	3.4
COCC(=O)Nc1ccc2c(c1)C(=O)N(C)[C@@H]1CC[C@@H](CC(=O)NCc3ccccc3Cl)O[C@@H]1CO2	-1	7	-8.1
C[C@@H]1CN([C@@H](C)CO)C(=O)c2ccccc2-c2ccccc2CO[C@H]1CN(C)C(=O)N[C@H](C)c1ccccc1	8	7	1.4
O=C(C[C@H]1CC[C@H]2[C@@H](COC[C@@H](O)CN2C(=O)c2ccc(F)cc2)O1)NCCCN1CCOCC1	12	7	4.8
COc1ccc(C[C@@H]2CCn3nncc3COC[C@@H](CC(C)C)NC2=O)cc1	2	0	2.1
Cc1noc(C)c1NC(=O)N[C@@H]1C=C[C@@H](CC(=O)Nc2ccc(-c3ccccc3)cc2)O[C@H]1CO	1	5	-4.4

Gathered by group: the entries above containing an NH in an aromatic ring
SMILES	DUX4 txn inh	DUX4 txn inh difference	DUX4 txn inh control
COc1ccc2c3c([nH]c2c1)[C@H](CO)N(C(=O)CN(C)C)CC31CN(CC2CC2)C1	7	-14	20
COc1ccc2c3c([nH]c2c1)[C@H](CO)N(Cc1nccs1)CC31CN(Cc2nccs2)C1	2	-4	6.9
COc1ccc2c3c([nH]c2c1)[C@@H](CO)N(C(=O)c1ccccc1)CC31CCN(C)CC1	11	-2	13
COc1ccc2c3c([nH]c2c1)[C@@H](CO)N(C(=O)NC1CCCC1)CC31CN(S(C)(=O)=O)C1	18	18	0.7

Source: PubChem

Some of the compounds tested. The share of hits here may be higher or lower than overall.
